NPR1 antag – Natriuretic polypeptide receptor (hNpr1) antagonism - Primary qHTS | hit rate 1.6% among 76,000 | HEK293 hNpr1 GloSensor cGMP, ANP-stimulated luminescence | AID 1347048, 2019 | Potency, µM (series often up to 46.3 µM), for inactives: at the top dose activity change, negative = inhibition, hits mostly inhibitors; active = well fitted inhibition curve with a large enough effect; inconclusive = small, poorly fitted or top-dose-only effect; inactive = no such curve, though single readings can be large or run the other way;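 note: nearly all actives have a fitted effect of over 60% in size; nearly all hits also lower the signal before the agonist is added; a reference antagonist and vehicle were the controls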
Target sequence (P16066 whole entry, looked up): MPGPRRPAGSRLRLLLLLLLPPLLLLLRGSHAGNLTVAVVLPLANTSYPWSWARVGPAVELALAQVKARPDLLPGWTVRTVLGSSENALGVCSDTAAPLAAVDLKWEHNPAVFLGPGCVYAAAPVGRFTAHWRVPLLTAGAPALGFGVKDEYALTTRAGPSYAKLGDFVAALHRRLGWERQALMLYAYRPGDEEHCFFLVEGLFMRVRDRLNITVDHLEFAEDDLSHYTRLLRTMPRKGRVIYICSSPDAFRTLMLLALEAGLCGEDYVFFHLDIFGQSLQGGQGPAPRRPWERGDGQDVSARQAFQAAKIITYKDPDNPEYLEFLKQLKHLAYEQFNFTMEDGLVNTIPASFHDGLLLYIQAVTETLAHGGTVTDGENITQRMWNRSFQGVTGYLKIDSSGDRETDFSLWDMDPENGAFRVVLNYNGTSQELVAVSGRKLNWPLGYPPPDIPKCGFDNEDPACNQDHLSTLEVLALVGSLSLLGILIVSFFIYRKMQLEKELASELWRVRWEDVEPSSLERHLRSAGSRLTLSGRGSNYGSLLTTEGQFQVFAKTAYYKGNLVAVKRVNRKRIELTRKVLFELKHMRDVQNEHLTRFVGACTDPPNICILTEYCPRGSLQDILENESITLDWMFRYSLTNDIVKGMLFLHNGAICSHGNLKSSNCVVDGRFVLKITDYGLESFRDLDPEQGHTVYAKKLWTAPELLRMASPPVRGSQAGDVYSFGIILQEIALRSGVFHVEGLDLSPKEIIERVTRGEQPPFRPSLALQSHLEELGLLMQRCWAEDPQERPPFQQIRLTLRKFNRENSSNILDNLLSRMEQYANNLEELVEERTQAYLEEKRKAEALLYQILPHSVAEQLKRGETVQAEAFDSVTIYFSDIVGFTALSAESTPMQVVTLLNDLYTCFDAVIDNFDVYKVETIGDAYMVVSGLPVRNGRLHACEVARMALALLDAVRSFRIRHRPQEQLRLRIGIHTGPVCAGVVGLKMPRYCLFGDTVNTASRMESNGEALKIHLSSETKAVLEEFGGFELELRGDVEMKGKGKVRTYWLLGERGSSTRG
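HEK293 cells stably expressing human Npr1 and cGMP GloSensor pGS-40F, loaded 2 h with 2% GloSensor reagent, given compound 30 min at room temperature. Luminescence read before and 20 min after 0.1 nM hNppA.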
Numbers without * were called inactive; ? = inconclusive; [ ] = another dose, or the depositor's remark. % is set by controls: 0 for no effect and ±100 for the full control effect; potency is the fitted concentration of half-maximal effect. An excerpt (hit frequency here may not be typical).

The first 6 entries, ahead of the listing:
NPR1 antag | molecule
-19% | CCc1cccc(NC(=O)CCC2CCN(C(=O)c3ccccc3)CC2)c1
0% | Cc1cccn2c(CC(=O)N[C@H](c3ccccn3)C3CC(O)C3)cnc12 (some centres not stated)
1% | COCCNC(=O)C(NC(=O)c1ccc(F)cc1)C1CCN(C(=O)C2CC2)CC1 (configuration not stated)
-11% | COCCN1C(=O)c2cccn2CC1CNC(=O)c1ccsc1 (configuration not stated)
? | CC1=C[C@@H](CNS(C)(=O)=O)[C@H](C(C)C)C[C@H]1Cc1nc2ccc(Cl)cc2[nH]1
-16% | COC[C@@H]1CN(c2ncccn2)C[C@H]1C(=O)N1CCOCC1

This part in full (from the top)
NPR1 antag | molecule
-19% | CCc1cccc(NC(=O)CCC2CCN(C(=O)c3ccccc3)CC2)c1
0% | Cc1cccn2c(CC(=O)N[C@H](c3ccccn3)C3CC(O)C3)cnc12 (some centres not stated)
1% | COCCNC(=O)C(NC(=O)c1ccc(F)cc1)C1CCN(C(=O)C2CC2)CC1 (configuration not stated)
-11% | COCCN1C(=O)c2cccn2CC1CNC(=O)c1ccsc1 (configuration not stated)
? | CC1=C[C@@H](CNS(C)(=O)=O)[C@H](C(C)C)C[C@H]1Cc1nc2ccc(Cl)cc2[nH]1
-16% | COC[C@@H]1CN(c2ncccn2)C[C@H]1C(=O)N1CCOCC1
0%[70.6 µM] | COc1ccc2nc(CO[C@H]3CN(C(=O)c4ccccc4)C[C@H]3F)[nH]c2c1
4% | CCn1cc(CN2CCCN(S(C)(=O)=O)C(c3ccccc3)CC(=O)NCC2)c(C)n1 (configuration not stated)
0% | CC(C)Oc1ccc(C(=O)N2C[C@@H](CN(C)C)[C@@H](CO)C2)cc1
1%[122 µM] | COC(=O)[C@@H]1Cc2nc[nH]c2CN1C
-3% | COCCOC1CN(C2CCN(S(=O)(=O)c3cccs3)CC2)C12CCCCC2 (configuration not stated)
-2% | N#Cc1ccc(C(=O)N2CCOCCNC(=O)CC2)cc1
0% | O=C(c1ccc(F)cc1)N1CCC2(CC1)CCN(CCc1ccccc1)c1ccccc1O2
-15% | CC(C)(C)c1ccc(C(=O)N2CCC3(C2)NC(=O)N(Cc2ccccc2)C3=O)cc1 (configuration not stated)
2% | O=C1CC(c2ccccc2)N(C(=O)C2CC2)CCCN(C(=O)NC2CCCCC2)CCN1 (configuration not stated)
8% | CN1[C@@H](CCC(=O)N2CCCC2)CNC(=O)[C@@H]2[C@H]1CCN2Cc1ccc(S(C)(=O)=O)cc1
-11% | Cc1cccc2oc(CNC(=O)[C@H]3CCC[C@H](O)C3)nc12
8% | COc1ccc(C2Cn3nnc(-c4noc(-c5ccncc5)n4)c3CO2)cc1 (configuration not stated)
0% | CCn1cc(-c2ccc(Cl)cc2)cc1C(=O)NCCN1CCOCC1
0% | CC1CCC2(CC1)NC(=O)N(CC(=O)Nc1cccc(F)c1)C2=O (configuration not stated)
1%[70.6 µM] | CC(C)(O)CN[C@H]1[C@H](O)[C@H](O)C[C@@H]1c1ccccc1
9% | O=C(CCn1cnnn1)N1CC(c2noc(C3CCCN3CC3CC3)n2)C1 (configuration not stated)
23%[70.6 µM] | CC(C)CCN1CCC2(CC1)CC(=O)Nc1ccccc1O2
-3% | Cc1cc(C)cc(NC2=N[C@H]3[C@@H](O)[C@H](O)C[C@H](C(=O)NCCN4CCCCC4)[C@H]3S2)c1
6%[70.6 µM] | O=C(c1cnccn1)N1CC[C@H](c2nc3ccccc3o2)C1
3% | Cc1nc(N(C)C)ncc1C(=O)N1CCC(C(=O)NCc2ccccn2)CC1
-3% | COc1ccc(CNC(=O)Cn2cccc2-c2nc(-c3ccc4c(c3)OCO4)no2)cc1OC
5% | COCc1nc(C2CCN(S(C)(=O)=O)C2)no1 (configuration not stated)
-1% | Cc1cc(NC(=O)Cn2c(-c3cccc(Cl)c3)nc(C)c(CCO)c2=O)no1
2% | COC[C@@H]1CN(C(=O)COc2ccccc2)C[C@H]1c1nc(C2CC2)no1
-30% | Cc1ccc(NC(=O)c2cc3c(s2)CN(C2CC2)C3)cc1
-29%[70.6 µM] | CC(C)CCNC1(Cc2cc(-c3ccc(F)cc3)on2)COC1
4% | CCn1cc(-c2nc3cc(S(=O)(=O)NC(C)C)ccc3n2C(C)C)cn1
7% | Cc1ccc(N2CCC(NC(=O)Cc3cccc(F)c3)C2=O)cc1 (configuration not stated)
-7% | CCC(C)NC(=O)CCN(CC)C(=O)c1cc(C)oc1C (configuration not stated)
-1% | O=C(O)C[C@@H]1CCN(S(=O)(=O)c2ccccc2)C[C@@H]1CC1=NCCc2cc(F)ccc21
7% | CCN1C(=O)C2CC3(CCN(C(=O)c4cc(C)nn4C)CC3)CN2C1=O (configuration not stated)
-12% | COc1ccc(Cl)cc1NC(=O)CCC1CCCN(Cc2ccc(C)s2)C1 (configuration not stated)
2% | O=C(NCc1nnc2ccc(-c3ccccc3)nn12)c1cc(F)ccc1Cl
14%[70.6 µM] | Fc1ccc(OC2CN(CC3CCCCC3)C2)cc1F

Two entries from above, with each value named:
smiles: O=C(O)C[C@@H]1CCN(S(=O)(=O)c2ccccc2)C[C@@H]1CC1=NCCc2cc(F)ccc21
  NPR1 antag: -1%

smiles: CCN1C(=O)C2CC3(CCN(C(=O)c4cc(C)nn4C)CC3)CN2C1=O (configuration not stated)
  NPR1 antag: 7%

Compounds from the list above containing a thiophene ring, fused or not, in the order listed:
NPR1 antag | molecule
-11% | COCCN1C(=O)c2cccn2CC1CNC(=O)c1ccsc1 (configuration not stated)
-3% | COCCOC1CN(C2CCN(S(=O)(=O)c3cccs3)CC2)C12CCCCC2 (configuration not stated)
-30% | Cc1ccc(NC(=O)c2cc3c(s2)CN(C2CC2)C3)cc1
-12% | COc1ccc(Cl)cc1NC(=O)CCC1CCCN(Cc2ccc(C)s2)C1 (configuration not stated)

Later entries:
NPR1 antag | molecule
-1%[70.6 µM] | CCCCCC(=O)N1CC[C@@H](CC(=O)NCc2cccnc2)[C@@H](CC)C1
-9% | COc1cc(CNC2CCCCCCC2)ccc1OCC(O)CN1CCSCC1 (configuration not stated)
4% | Cc1cc(C(N)=O)c(-c2c(C)n[nH]c2C)nc1C
5% | CCOCCn1c(=O)[nH]c2cc(C(=O)N(C)Cc3ccsc3)ccc21
3% | COc1cccc(CNC(=O)Cn2c(C)cc3nc4n(c(=O)c32)CCCCC4)c1
0% | Cc1ccc(CC(=O)N2CCCN(S(C)(=O)=O)c3ccccc32)cc1
-16% | Cc1cccc(C)c1NC(=O)CN1C(=O)C(c2ccccc2)=NC12CCCCC2
-3% | Cn1c(CN2CCCC2)nnc1C1CCN(C(=O)c2ccc(=O)[nH]c2)CC1
3% | O=C(c1ccc2nc[nH]c2c1)N1CCCC2(C1)Nc1cccnc1NC2=NC1CCCC1 (configuration not stated)
0% | CNC(=O)[C@@H]1C[C@H](n2cc(-c3ccc(CN4CC[C@@H](O)C4)cc3)nn2)CN1
6% | COc1nc2c(cc1CNC(=O)CSC)C(=O)N(CCc1ccccn1)C2
0% | COc1ccc(NC(=O)C(C)C2CCOCC2)c(C)c1 (configuration not stated)
2% | CN(C(=O)c1cc2ccccc2s1)C1CCCN(C2Cc3ccccc3C2)C1 (configuration not stated)
4% | Cc1cnccc1N1CCCN(C(=O)c2cccc(C3CCCNC3)c2)CC1 (configuration not stated)
4%[70.6 µM] | O=C(NC[C@H]1O[C@H](Cc2cc(CN3CCOCC3)on2)CC[C@@H]1O)c1cccc(F)c1
5% | COc1cccc(C(=O)N2CCC(N(C(=O)C3CC3)C3CCOCC3)CC2)c1
-8% | CN(C(=O)CCN1Cc2ccccc2C1=O)C1CCCN(CCc2ccccc2)C1 (configuration not stated)
-2% | COCCn1c(CN(C)C(C)c2ccccn2)cnc1S(=O)(=O)CCC(C)C (configuration not stated)
-5%[70.6 µM] | Cc1cc(-c2nc(-c3c(C)noc3C)cc3c2cc(C)n3CCN(C)C)ccn1
-1% | CC1(C)CN(C(=O)CSC23CC4CC(CC(C4)C2)C3)CC1(C)O (configuration not stated)
5% | Cn1nnnc1C1CCCN(C(=O)NC2CCCCC2)C1 (configuration not stated)
-1% | COc1ccc(OC)c(S(=O)(=O)N2CCC(Oc3ccccc3-c3nc(C)no3)C2)c1 (configuration not stated)
6% | CO[C@H]1C(=O)N(C(C)C)[C@H]1C1CCN(S(=O)(=O)c2c(C)noc2C)CC1
0% | Cc1ccc(CC(=O)N2CCC(c3n[nH]c(=O)n3-c3ccccc3)CC2)cc1
-1%[70.6 µM] | C=CCO[C@@H]1CCN2C(=O)c3cc(-c4cccc(C(F)(F)F)c4)ccc3NC(=O)[C@H]12
? | Cc1nn2c(c1-c1ccccc1Oc1ccccc1)N(C(=O)Cc1ccccc1)CCC2
11µM* | FC(F)(F)C1CN(c2ccnc3ccc(Cl)cc23)CCO1 (configuration not stated)
0%[70.6 µM] | CN1CCC(NC2(Cc3cc(-c4ccccn4)on3)COC2)CC1
? | CN1C(=O)COC[C@@H]1[C@H](O)c1ccc(NC(=O)c2ccc(C(F)(F)F)cc2)cc1
4% | NCC1Cn2cccc2C(=O)N1Cc1ccccc1 (configuration not stated)
-20%[70.6 µM] | COc1ccccc1CNC(=O)[C@@H]1Cc2c[nH]c3cccc(c23)[C@H](CC(C)C)N1
9% | COc1cccc(N2CC(C(=O)NCCc3ccc(F)cc3)NC2=O)c1 (configuration not stated)
-2% | COc1ccc(CC(=O)N[C@@H]2CN(c3ccccn3)C[C@H]2CN(C)C)cc1
-18% | Cc1nn(-c2ccc(C(F)(F)F)cc2)c(C)c1[C@@H]1C=C[C@@H](NS(=O)(=O)c2cccs2)C1
? | COc1ccc(C(=O)N2CCc3onc(-c4ccc(C(F)(F)F)cc4)c3C2)o1
0% | O=C(CC1CCN(S(=O)(=O)c2ccccc2)C1)NCc1ccccc1 (configuration not stated)
-2% | Cc1ccc(CN2C(=O)NC3(CCCN(C(=O)c4cc(F)ccc4F)C3)C2=O)cc1 (configuration not stated)
-4% | CCOc1ccc(CC(=O)NC2CCN(c3cc(-c4ccccc4)[nH]n3)C2)cc1OCC (configuration not stated)
14% | CNC(=O)C1CCc2ncc(-c3ccsc3)n2C1 (configuration not stated)
2% | CN1C(=O)CC[C@]2(C(=O)NCC3CCCCC3)CCCC[C@@H]12
0%[70.6 µM] | CC(=O)N1CCC2(C1)N=C(c1ccccn1)C(=O)N2 (configuration not stated)
-21% | N#Cc1ccc(C(=O)N2CCCCC2c2nc(CCOCC3CCOCC3)no2)cc1 (configuration not stated)
10% | O[C@@H]1C[C@@H](c2nnc3n2CCN(Cc2ccc4c(c2)CCO4)C3)N(Cc2cccnc2)C1
-23% | Cn1nccc1C(=O)NCC1Cc2cc(-c3cccc(OC(F)(F)F)c3)ccc2O1 (configuration not stated)
-15%[70.6 µM] | CN(C)CCNC(=O)C(C)(C)Oc1nn(CCOc2ccccc2)c2ccccc12
-1% | COc1cccc(CN2CCCC3(CCN(C(=O)c4cccnc4)C3)C2=O)c1OC (configuration not stated)
0%[70.6 µM] | Cc1ccc2nc([C@H]3CCN(C(=O)C4CC4)C3)[nH]c2c1
1% | CN(Cc1ccon1)C(=O)C1CCN(C(=O)C2CCC2)CC1
-15%[70.6 µM] | COCc1cn(C[C@H]2C[C@@H](NC(=O)Nc3cccnc3)[C@H](O)[C@@H]2O)nn1
0% | COCc1nc(C2CCCN(C(=O)c3ccoc3)C2)no1 (configuration not stated)
2% | COC[C@@H]1CN(C(=O)c2cc(OC)cc(OC)c2)C[C@H]1C(N)=O
4%[70.6 µM] | COc1ccc(O[C@H]2COCCN(C(=O)N3CCOCC3)C2)cc1
2% | COCCN1C(=O)c2ccccc2C(C(=O)Nc2cc(C)ccn2)C12CCCCC2 (configuration not stated)
3%[70.6 µM] | CC(C)CS(=O)(=O)N[C@H](C)c1onc(-c2ccc(Cl)cc2)c1C(=O)O
-1% | c1cc(-c2ccsc2)n2nc(C3CCCO3)nc2n1 (configuration not stated)
-3%[70.6 µM] | CNC(=O)C(C)(C)N1CCC[C@H]1C(=O)NCCN1CCCCC1
3% | O=C(COc1cccnc1)N[C@@H]1[C@@H]2CCO[C@@H]2[C@@H]1C1CCCC1
1% | COc1ccc(-c2ccccc2NC(=O)C2CCCN(Cc3ccc(F)c(F)c3)C2)cc1 (configuration not stated)
0% | O=C(NCc1ccc(F)cc1)c1nc2sccn2c1Br
3%[70.6 µM] | COCCNC(=O)NC[C@H]1O[C@@H]2C[C@@H](CC(=O)N3CCC(F)(F)C3)O[C@@H]2[C@@H]1O

Further compounds follow:
NPR1 antag | molecule
1% | COC(=O)CCNC(=O)C1CN(S(=O)(=O)c2ccccc2)CC12CCCCC2 (configuration not stated)
-7% | O=C1CS(=O)C2(CCN(S(=O)(=O)Cc3ccccc3F)CC2)N1CC1CC1 (configuration not stated)
1% | CC(C)N1CCN(C(=O)CCC2CCN(S(=O)(=O)c3ccccc3)CC2)CC1
0% | O=C(c1c(F)cccc1F)N1CCCC2(C1)NC(=O)N(Cc1ccccc1)C2=O (configuration not stated)
3% | COc1ccc(CNC(=O)c2noc(-c3ccc4c(c3)OCO4)n2)cc1
6% | Cc1ccc(CNC(=O)CC2CCCN(c3cnn(C)c(=O)c3)C2)cc1 (configuration not stated)
4%[70.6 µM] | O=C(NCC1CC1)c1nc2c(o1)CCN(Cc1cccc(O)c1)CC2
-14% | Cn1cccc1CN1CCCN(S(=O)(=O)c2ccccc2)CCC(=O)NCC1
0% | CCCCc1nn(CC(=O)N2CCCC2c2c(C)noc2C)c(=O)n1CC (configuration not stated)
-1% | OCC#Cc1ccc(CN2CCC3(CCNCC3)C2)cc1

Assay outcomes (PubChem BioAssay)
